MT1-MMP act inh: MT1-MMP (human) activation inhibition; HT1080 RFP-PRO-GFP cells, GFP/RFP ratio fluorescence, overnight; percent of plate control window, DMSO zero; actives 0.061% (n = 360,000); P50281; AID 651647; GFP/RFP ratio change, % at 20 µM;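 active = GFP/RFP ratio change of at least 30% with cell ATP level not reduced by more than half and red fluorescence within 50% of control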; note: strong numbers were not always called active
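system = RFP-PRO-GFP reporter HT1080 cells | dosing = 20 µM single dose, 1% DMSO | timing = overnight cell settling, then overnight compound exposure, 37 °C, 5% CO2 | read-out basis = GFP/RFP fluorescence ratio | controls = DMSO and RFP-L50D-GFP cell wells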
Rce1 inh: inhibitors of yeast Ras-converting enzyme; Q03530; yeast membranes, quenched prenylated peptide cleavage fluorescence; calls only; actives 0.27% (n = 290,000);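 active = fall in fluorescence gain of 50% or more versus controls, with final raw signal at or below 3038400; inconclusive = same 50% fall but final raw signal above 3038400; inactive = fall in fluorescence gain under 50%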;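 note: plate controls were neutral control wells for no effect and wells lacking membranes for full effect; tested at 10 µM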
Target sequence (Q03530 whole entry, looked up): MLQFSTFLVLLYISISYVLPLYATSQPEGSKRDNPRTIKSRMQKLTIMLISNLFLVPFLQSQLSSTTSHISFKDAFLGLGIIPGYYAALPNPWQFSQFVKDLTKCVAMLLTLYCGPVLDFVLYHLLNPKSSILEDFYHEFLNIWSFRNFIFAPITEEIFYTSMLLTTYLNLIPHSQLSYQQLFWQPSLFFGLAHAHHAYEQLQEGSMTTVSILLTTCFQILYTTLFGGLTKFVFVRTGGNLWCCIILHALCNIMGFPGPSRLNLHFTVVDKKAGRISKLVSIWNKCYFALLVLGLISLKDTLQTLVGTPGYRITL
Yeast UUG start: modulators of start codon recognition fidelity in yeast. S. cerevisiae UUG-firefly luciferase reporter, luminescence/redox ratio. activity score, % at 18.7 µM. actives 0.13% (n = 350,000). AID 602363;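 active = replicate mean at a twofold rise or more, about +100% in these data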;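 note: firefly luciferase made from a UUG start codon reports start codon fidelity; reporter light over untreated wells divided by growth signal over untreated wells; some hits fall short of that in this replicate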
eIF4H inh: inhibitors of RNA binding by human eIF4H; inhibition, % at 35 µM; Q15056; AID 2012; actives 0.94% (n = 290,000); eIF4H fluorescence polarization binding assay;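 active = 50% or more with normal probe brightness, or confirmed in later tests; inconclusive = above 50% with abnormal brightness, or retests that disagree; inactive = below 50% or failed in later tests; about a fifth of its hits are not listed in these tables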;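 note: calls also rest on retests at 20 µM and on dose response follow-up; 0% = protein and probe with vehicle and 100% = probe without protein; strong numbers were not always called active; many hits fall short of the cut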
CSC inhib: blocks cancer stem cells; cancer stem cell-like cells viability, luminescence; inhibition, % at 7.5 µM; actives 1.1% (n = 300,000); AID 2717;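 active = mean at 75% or more and at least half the replicates too; inconclusive = mean and replicates disagree; tested in HMLE shEcad cells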;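 note: 0% = median of negative and 100% = median of positive control wells; the first replicate is given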
PABP polyA inh: blocks human PABP binding to poly(A) RNA; actives 1% (n = 290,000); fluorescence polarization; AID 2014; P11940; inhibition, % at 35 µM;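 active = 50% or more with normal probe brightness, or confirmed in later tests; inconclusive = above 50% with abnormal brightness, or retests that disagree; inactive = below 50% or failed in later tests; about a fifth of its hits are not listed in these tables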;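 note: calls also rest on retests at 20 µM and on dose response follow-up; controls were probe without protein and protein plus probe with vehicle; some compounds called inactive have numbers as strong as hits; many hits fall short of the cut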
Target sequence (P11940 whole entry, looked up): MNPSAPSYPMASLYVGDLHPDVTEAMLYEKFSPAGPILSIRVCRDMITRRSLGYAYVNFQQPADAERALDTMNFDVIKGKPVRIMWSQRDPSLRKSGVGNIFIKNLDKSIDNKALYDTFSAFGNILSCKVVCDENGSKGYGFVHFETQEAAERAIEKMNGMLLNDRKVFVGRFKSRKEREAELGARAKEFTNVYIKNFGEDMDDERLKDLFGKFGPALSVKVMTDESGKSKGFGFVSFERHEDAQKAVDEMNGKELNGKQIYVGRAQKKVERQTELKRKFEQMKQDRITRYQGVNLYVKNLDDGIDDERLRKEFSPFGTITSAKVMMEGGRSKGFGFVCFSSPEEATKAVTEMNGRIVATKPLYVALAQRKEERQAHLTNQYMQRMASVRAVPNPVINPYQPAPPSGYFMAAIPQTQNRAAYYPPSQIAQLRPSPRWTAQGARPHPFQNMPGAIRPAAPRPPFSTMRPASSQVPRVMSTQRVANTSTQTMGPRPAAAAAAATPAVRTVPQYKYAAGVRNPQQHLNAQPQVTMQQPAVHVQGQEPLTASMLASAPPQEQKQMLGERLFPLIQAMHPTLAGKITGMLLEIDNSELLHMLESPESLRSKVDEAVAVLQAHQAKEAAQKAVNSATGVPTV
HIV Env fusion: HIV envelope-mediated fusion inhibition; actives 1.1% (n = 360,000); HeLa-JRFL Env/CEM21 cell fusion, luciferase; inhibition, % at 12.3 µM;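 active = mean replicate inhibition score of at least 50 and every replicate individually at or above 50; inconclusive = only one of the two criteria met; inactive = mean below 50 and not all replicates reaching 50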;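 note: 0% = plate neutral controls and 100% = maraviroc near 300 nM; one replicate is shown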
eIF4H inh retest: also measured in eIF4H inh; calls as there; inhibition, %; compound at 20 µM; confirmation average;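 mean of two retest wells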
PABP polyA inh retest: also measured in PABP polyA inh; calls as there; inhibition, %; compound at 20 µM; confirmation repeats;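 mean of two retest wells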
MT1-MMP act inh RFP: recorded beside MT1-MMP act inh, whose call it bears; RFP signal change, %; measured here: RFP expression control read;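 0 = vehicle wells; hits needed this value within 50% of zero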
* = called active by the depositor; i = inactive; ? = inconclusive; / = not tested or not shown; & = joins results of further samples.

SMILES	MT1-MMP act inh	MT1-MMP act inh RFP	Rce1 inh	Yeast UUG start	eIF4H inh	CSC inhib	PABP polyA inh	HIV Env fusion	others
CCC(=O)N1CCc2cc(S(=O)(=O)N(C)c3ccc(OC)cc3OC)ccc21	2	-2	i	-16	0	-8	3	6
Cc1nc2ccccc2nc1N/N=C/c1ccc(O)cc1O	-4	-6	i	/	24	63	13	30
O=C1CCC/C=C\C[C@@H](CC(=O)N(CCO)Cc2ccccc2)C(=O)N[C@H](Cc2c[nH]c3ccccc23)CO1	-2	2	/	-6	/	/	/	-135
Cc1noc(C(=O)Nc2cccc(O)c2)c1Cl	6	6	i	-26	-8	5	-4	-7
O=C(Cc1ccc(Br)cc1)N1CCCCCC1	2	0	i	-2	-7	/	3	/
CC(=O)N1CCc2cc(S(=O)(=O)NCCC3=CCCCC3)ccc21	-7	-12	i	-11	/	/	/	?
O=C1NC[C@H](CC2CCCCC2)N(CC2CCCCC2)C1=O	5	3	i	-5	/	-1	/	-21
c1csc(CNc2nc(-c3cccs3)nc3ccccc23)c1	3	-1	i	/	-8	47	-2	4
CCOC(=O)N1CCN(CC(O)c2c[nH]c3ccccc23)CC1 (stereo not given)	0	3	i	-3	0	-14	1	2
CC1(C)CC[C@]2(C(=O)O)CC[C@]3(C)C(=CC[C@@H]4[C@@]5(C)CC[C@H](O)C(C)(C)[C@@H]5CC[C@]43C)[C@@H]2C1	0	-4	/	-27	-11	59	18	-7
CCC(CC)C(=O)Nc1ccccc1NC(C)=O	-2	7	i	-20	-10	-8	-6	-24
CCOc1cc(C(=O)OCC(=O)c2cc(C)n(CC3CCCO3)c2C)ccc1OCC(=O)N1CCOCC1 (stereo not given)	3	3	i	-6	12	-8	5	11
COc1cc(C(=O)N2CCCC(C)(C(=O)NS(=O)(=O)C3CC3)C2)cc(OC)c1OC (stereo not given)	-3	4	/	-2	/	/	/	1
O=C(O)CCn1c(SCCOc2ccccc2)nc2ccccc21	-1	1	i	1	-2	29	-6	-5
CC1(C)Cc2ccccc2C(C(Cc2ccccc2)C(N)=O)=N1 (stereo not given)	-3	-1	i	1	0	-13	-1	19
N#Cc1ccc(CN2CCN(C(=O)CCNS(=O)(=O)c3ccc(F)c(Cl)c3)CC2)cc1	-1	-15	/	-8	/	/	/	5
O=C(NCc1cc([N+](=O)[O-])ccc1O)c1cc(-c2ccncc2)nc2ccccc12	-4	-3	i	-15	3	4	10	5
COc1ccccc1NC(=O)CSc1ccc2nnc(-c3cccnc3)n2n1	1	3	i	-19	-9	-6	-5	27
Cc1cc(C)n(CC(O)COc2c(C)cccc2C)n1 (stereo not given)	0	-2	i	/	-14	-13	-1	8
O=C(NCc1ccccc1)C(c1ccco1)N(C(=O)c1csnn1)c1ccccc1 (stereo not given)	1	3	i	-28	1	-20	-1	-3
Cc1cc(=S)cc(C)n1CCCO	1	5	i	-16	-6	5	-1	-7
CCCCN1C(=O)C(CC(=O)NCc2ccco2)CC(C(=O)N(CC)CC)=C1C (stereo not given)	3	5	/	-7	/	/	/	-24
Cc1nn(C(C)C(=O)NCc2ccccc2F)c(=O)c2nn(-c3ccccc3)c(C)c12 (stereo not given)	2	-2	i	-8	-17	-4	-8	-4
COc1ccc(-c2noc(CCCC(=O)NC3CCCC3)n2)cc1OC	-3	-3	i	-1	-10	6	6	3
COc1cccc(/C=N/NC(=O)c2c(-c3ccccc3)noc2C)c1	-4	-3	i	7	-9	-2	-2	-394
O=C(NCc1ccc2c(c1)OCO2)C(=O)NCC1CCCO1 (stereo not given)	1	3	i	/	-1	-8	8	-2
O=C(Nc1nccs1)c1csc2c1CCCC2	-11	-4	i	-23	-8	-1	2	/
O=[N+]([O-])c1ccc(S(=O)(=O)N2CCN(c3ccccn3)CC2)cc1	-2	5	/	-18	/	/	/	-120
CCCc1ccc2oc(C(=O)N(Cc3nccn3C)C(C)C)c(C)c2c1	-3	-6	i	-9	9	39	-2	4
O=c1cc(-c2ccccc2F)nc(-c2ccccc2F)o1	5	7	i	/	-4	7	5	2

Of the compounds above, these have a COOH group:
SMILES	MT1-MMP act inh	MT1-MMP act inh RFP	Rce1 inh	Yeast UUG start	eIF4H inh	CSC inhib	PABP polyA inh	HIV Env fusion	others
CC1(C)CC[C@]2(C(=O)O)CC[C@]3(C)C(=CC[C@@H]4[C@@]5(C)CC[C@H](O)C(C)(C)[C@@H]5CC[C@]43C)[C@@H]2C1	0	-4	/	-27	-11	59	18	-7
O=C(O)CCn1c(SCCOc2ccccc2)nc2ccccc21	-1	1	i	1	-2	29	-6	-5

(further entries)
SMILES	MT1-MMP act inh	MT1-MMP act inh RFP	Rce1 inh	Yeast UUG start	eIF4H inh	CSC inhib	PABP polyA inh	HIV Env fusion	others
COc1ccc(CCN(C)C(=O)CSc2ncnc3sccc23)cc1OC	2	-2	i	/	15	2	2	1
CN(C)c1ccc(C(=O)N2CCNC(=O)C2CC(=O)Nc2ccc(F)cc2)cc1 (stereo not given)	0	-3	i	-4	-17	-6	-3	1
CCN(CC)S(=O)(=O)c1cccc2c(N(C)C)cccc12	-2	0	i	5	-8	4	-2	/
CC(CCc1ccccc1)NC(=O)COC(=O)c1ccccc1O (stereo not given)	2	0	i	-12	0	-3	-8	-69
O=C(N[C@@H](Cc1ccc(O)cc1)C(=O)O)C(c1ccccc1)c1ccccc1	-4	0	i	-6	-2	-4	7	26
CCCCOc1ccc(C(=O)N=c2sccn2C)cc1OC	2	0	i	3	-13	4	-8	-65
O=C(O)c1ccc(S(=O)(=O)N2CCc3ccccc3C2)cc1	-3	3	i	-5	-1	-44	-4	6
COCCN(C(=O)COC(=O)CCC1CCCCC1)c1c(N)n(Cc2ccccc2)c(=O)[nH]c1=O	3	3	/	-1	/	/	/	-4
O=C(c1ccccc1Oc1ccccc1)N1CCN(c2ccccc2F)CC1	1	-5	i	-14	-6	6	-8	/
Cc1occc1C(=O)Nc1ccc(Br)cc1F	-5	2	i	-11	-6	-4	1	-75
CCCCn1c(=O)n(CC(=O)NCc2ccc(C)cc2)c(=O)c2c1nc(CO)n2CCC	3	4	i	/	1	-2	-3	/
CCCc1nn(-c2cc(Cl)ccc2OC)c2c1C(=O)CC(C)(C)C2	-3	0	i	-4	-3	33	76	-3	eIF4H inh retest=-9;PABP polyA inh retest=-4
COc1ccc(CCNC(=O)C2CC2)cc1	-3	0	i	/	/	-13	/	-2
COc1ccc(CNC(=O)C2(CC3CC(c4ccccc4)=NO3)CCN(C(=O)OC(C)(C)C)CC2)cc1 (stereo not given)	-4	-2	i	-1	/	-6	/	-25
CN(Cc1ccccc1)S(=O)(=O)c1ccc(Cl)c(C(=O)O)c1	-2	0	i	/	2	5	26	-2
C/C(=N\NC(=O)CC1N=C(Cc2ccccc2)NNC1=O)c1ccncc1 (stereo not given)	0	2	i	/	3	-7	3	-6
CCOc1ccc(/C(O)=C2/C(=O)C(=O)N(CC3CCCO3)C2c2ccc(C)o2)cc1 (stereo not given)	1	3	i	-15	11	-3	-1	/
C/C(=N\N=C(N)N)c1cccc([N+](=O)[O-])c1	2	2	i	/	5	11	4	-9
CN(Cc1c(F)cccc1Cl)C(=O)c1cnc2ccccc2n1	2	2	i	2	-10	-13	10	-2
CC(=O)N(c1nc(CCl)cs1)c1cccc(C)c1C	-2	-1	/	-14	-10	1	-8	8
O=C(NCc1cccc(C(F)(F)F)c1)c1ccc2c(c1)OCO2	1	-3	i	-10	0	/	9	1
COc1cc(C(=O)N(Cc2ccc(N(C)C)cc2)C2CCS(=O)(=O)C2)cc(OC)c1OC (stereo not given)	0	-3	i	6	11	-15	-3	/
Cn1cc(C(=O)N2CCc3ccccc3C2)c(=O)c2cc(S(=O)(=O)N3CCOCC3)ccc21	3	4	i	7	-2	16	1	14
Cc1ccc(S(=O)(=O)N2C[C@@H]3CCCC[C@@H]3[C@@H](C)[C@H]2CC(=O)c2ccccc2)cc1	-5	-7	/	-10	/	/	/	-13
Cn1c(-c2cc(Br)ccc2O)n[nH]c1=S	1	0	i	-10	-5	-7	-2	/
Cc1ccnc(S(=O)(=O)Cc2ccc([N+](=O)[O-])cc2)n1	-5	-3	i	-1	-5	10	-8	-2
NC(c1ccncc1)c1ccc(Cl)cc1 (stereo not given)	2	5	/	-11	/	/	/	12
CC(C)CN(C(=O)COC(=O)CCSc1ccc(Cl)cc1)c1c(N)n(Cc2ccccc2)c(=O)[nH]c1=O	-2	5	/	-12	/	/	/	9
COc1cc(S(=O)(=O)n2cnc3ccccc32)ccc1Br	1	0	i	2	-2	-15	8	13
N#CCSc1ccccc1NC(=O)CN1C(=O)C2CC=CCC2C1=O (stereo not given)	-51	4	/	-17	/	/	/	13
CCN(CC)c1ccc(C=Nc2ccccc2)c(O)c1	-3	8	i	-17	11	/	-12	/
O=C1C(=Cc2ccc(Br)o2)C(=O)c2ccccc21	3	6	/	-15	89*	0	6.4*	/	eIF4H inh retest=101*;PABP polyA inh retest=101*
CC1(C)CNC(=O)c2sc(NC(=O)c3ccccc3)nc2C1	2	6	i	-16	-4	-13	8	-37
COc1ccc(-c2csc(NC3OC(=O)c4c3ccc(OC)c4OC)n2)cc1OC (stereo not given)	-1	-13	i	9	0	39	-3	5
COc1ccc(C2=NN(C(C#N)c3ccc(OC)cc3)C(c3ccccc3)C2)cc1 (stereo not given)	3	4	i	-13	-10	40	-1	/
COc1cc2oc(=O)cc(CN3CCCCCCC3)c2cc1Cl	0	-1	/	-2	/	/	/	-3
Cc1cn(C2CCCCO2)c(=O)[nH]c1=O (stereo not given)	0	2	/	-2	/	/	/	-198
Cc1c(C(=O)O)oc2c1C(=O)CC(C)(C)C2	1	1	i	-6	6	0	5	0
Cc1ccc2nsnc2c1S(=O)(=O)N(CCO)Cc1cc2cc3c(cc2[nH]c1=O)OCCO3	-9	1	i	-23	-2	-1	7	/
C[C@H](CO)N1C[C@H](C)[C@@H](CN(C)Cc2ccccc2)Oc2c(NS(=O)(=O)c3ccccc3)cccc2C1=O	4	1	/	27&-1	/	1	/	-32
COc1ccccc1CNC(=O)CN1C(=O)NC(c2ccccc2)(c2ccccc2)C1=O	0	-4	/	/	/	-12	/	-5
COc1cc(OC)c(OC)cc1CN(C)CC1CCCN(CCc2ccccc2F)C1 (stereo not given)	2	7	i	-4	1	21	-1	13
CCOC(=O)Nc1ccc(C(=O)/C=C/c2ccccc2)cc1	8	-5	i	2	10	22	-5	-62
Cc1occc1C(=O)Nc1ccccc1C(=O)O	2	3	i	-8	2	11	16	/
S=c1[nH]nc2nnc3ccccc3n12	11	6	i	10	8	4	12	12
CCC(CC)C(=O)Nc1cccc(C(=O)N2CCCC2)c1	3	3	i	-3	3	/	-6	/
O=C(CS(=O)(=O)c1ccccc1)N(CCCN1CCOCC1)c1nc2c(F)cccc2s1	6	0	i	-2	/	-4	/	-38
Cc1ccccc1NC(=O)c1cc(S(=O)(=O)N2CCCCC2)ccc1N1CCOCC1	1	4	/	4	/	/	/	0
CCc1cc(-c2cnnn2CCc2c[nH]c3ccccc23)ccc1-c1cn(CC(C)C)nn1	-1	-5	/	-7	/	/	/	5
CCC1(CC)NC(=O)N(Cc2nc3ccccc3s2)C1=O	-3	1	i	/	6	0	9	-17
O=C(Cc1cccs1)Nc1ccc(F)c(F)c1	1	2	i	-12	2	-8	15	5
